Source: PubChem
KCNQ2 enhance – potentiators of rat KCNQ2 potassium channel; CHO-K1 KCNQ2, FluxOR thallium flux fluorescence; stronger effect = higher value; AID 2239; actives 0.54% (n = 310,000); B-score at 10 µM; O88943;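 active = fluorescence ratio B-score at least 3 SD of library B-scores, with initial fluorescence B-score within 3 SD, cut at about 5.3 in these data; same plate scores as AID 2156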;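 note: B-score of peak minus minimum over baseline fluorescence ratio after K+ and Tl+ stimulus; positive B-score means potentiation of KCNQ2 with more thallium influx and brighter signal; only the inactives scoring about 0 or higher are listed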
Target sequence (O88943 whole entry, looked up): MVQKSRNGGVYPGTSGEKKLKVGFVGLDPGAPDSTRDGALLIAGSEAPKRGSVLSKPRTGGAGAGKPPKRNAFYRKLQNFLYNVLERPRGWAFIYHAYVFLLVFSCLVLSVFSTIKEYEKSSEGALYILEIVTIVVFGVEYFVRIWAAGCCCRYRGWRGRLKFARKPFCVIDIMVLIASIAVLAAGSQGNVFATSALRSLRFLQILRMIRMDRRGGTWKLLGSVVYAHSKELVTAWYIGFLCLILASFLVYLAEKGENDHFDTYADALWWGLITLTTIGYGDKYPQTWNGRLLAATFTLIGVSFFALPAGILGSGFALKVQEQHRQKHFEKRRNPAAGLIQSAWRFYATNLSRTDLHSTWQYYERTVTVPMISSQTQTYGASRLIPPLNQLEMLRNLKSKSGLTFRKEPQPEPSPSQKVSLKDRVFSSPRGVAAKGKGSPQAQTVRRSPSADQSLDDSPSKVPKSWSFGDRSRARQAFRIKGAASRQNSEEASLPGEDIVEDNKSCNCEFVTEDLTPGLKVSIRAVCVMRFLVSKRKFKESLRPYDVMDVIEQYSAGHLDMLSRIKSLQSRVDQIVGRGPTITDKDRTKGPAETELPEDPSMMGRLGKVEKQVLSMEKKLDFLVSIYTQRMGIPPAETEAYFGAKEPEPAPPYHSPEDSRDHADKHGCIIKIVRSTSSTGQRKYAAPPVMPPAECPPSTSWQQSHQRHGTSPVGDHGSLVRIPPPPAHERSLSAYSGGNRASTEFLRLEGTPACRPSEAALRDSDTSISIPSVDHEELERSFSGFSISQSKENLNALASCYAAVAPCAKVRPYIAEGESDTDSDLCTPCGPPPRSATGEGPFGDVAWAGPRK
KCNQ2 enhance baseline – recorded beside KCNQ2 enhance, whose call it bears; B-score; compound at 10 µM; measured here: initial fluorescence intensity artifact check;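 brightness before thallium and not channel activity; 0 = typical well and far values either way flag optical interference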
An asterisk follows results filed as active; . = no result given. Only part of the results is shown; count on the stated rates, not on these rows.

smiles,KCNQ2 enhance baseline,KCNQ2 enhance
Cc1cc(CNC(=O)Cc2ccccc2)c2ccccc2n1,-1.77,1.85
COc1cc(C(=O)NCCC(=O)NCCCN2CCCCC2C)cc(OC)c1OC (stereo not given),-0.33,0.48
COC(=O)C1=CNC=C(C(=O)OC)C1c1ccc(Cl)cc1,0.91,1.81
CC(OC(=O)CN(C)S(=O)(=O)c1ccc(Cl)cc1)C(=O)Nc1ncc(Cl)cc1Cl (stereo not given),-1.11,1.22
CCOC(=O)c1ccc(N2C(=O)c3n[nH]c(C)c3C2c2ccc(OC)cc2OC)cc1 (stereo not given),1.32,0.58
CS(=O)(=O)N1CCN(c2ccnc3cc(Cl)ccc23)CC1,-0.27,1.57
O=C(CN(Cc1cccs1)C(=O)CSc1nnc(COc2ccccc2)o1)NC1CCCCC1,-1.03,0.69
O=C(NCCCN1CCN(Cc2ccccc2)CC1)c1nnc(Cc2c(F)cccc2Cl)o1,1.7,4.85
COc1nc(N(C#N)CC(N)=O)nc(N2CCCC2)n1,2.44,1.45
CCCCC(=O)Nc1nnc(SCC(=O)NCC2CCCO2)s1 (stereo not given),0.57,0.02
O=C(C1=C(O)C(=O)N(CC2CCCO2)C1c1cccc(Cl)c1)c1ccco1 (stereo not given),-0.11,1.2
CSCC[C@H](NS(=O)(=O)c1ccc(C)cc1)C(=O)N1CCC(C(=O)N[C@@H](Cc2ccc(O)cc2)C(=O)O)CC1,1.06,0.67
COc1ccc(CNC(=O)c2cc3ccccc3o2)cc1OC,1.02,0.68
O=C1CCCCC1C(Nc1ccc(Cl)cc1)c1ccccc1 (stereo not given),-1.86,1.54
COC(=O)/C(=C/N(C)C)C(=O)N1CCN(c2ccc(Cl)c(Cl)c2)CC1,1.88,0.03
O=C(c1ccccc1)c1cncc(Br)c1,-0.3,0.92
COc1ccc(NC(=O)C2CCCN2S(=O)(=O)c2cccs2)c([N+](=O)[O-])c1 (stereo not given),-0.64,0.33
CC(C)(C)NC(=O)CSc1nnnn1C(C)(C)C,2.8,0.23
CCCCCn1c(=O)c(C(=O)OCC)c(O)c2ccccc21,-3.45,0.19
COc1ccc(OCC(=O)Nc2cccc(C(=O)Nc3ccccc3C(=O)O)c2)cc1,1.61,0.74
O=C(CSc1nnc(SCc2cccc3ccccc23)s1)N/N=C/c1c[nH]c2ccccc12,0.85,0.13
CC(C)[C@H](NC(=O)N1c2ccccc2NC(=O)[C@@H]1C(C)C)C(=O)N1CCC[C@H]1C(=O)O,1.09,0.11
COc1cc(/C=N/NC(=O)c2cccc3ccccc23)ccc1OCC(N)=O,-2.19,1.05
CC1(C)CN(c2cccc(Br)c2)C1=O,1.45,0.75
O=C(Cn1c(=O)[nH]c2ccccc2c1=O)Nc1ccc2c(c1)OCO2,0.48,0.02
Cc1cc(C)c2c(CN3CCN(CCO)CC3)cc(=O)oc2c1,0.8,0.4
Cc1nc2sc3c(NCc4ccco4)ncnc3c2c2c1COC(C)(C)C2,-0.01,1.4
O=C(NCc1cccs1)C1CCC(CNS(=O)(=O)c2cccc3nsnc23)CC1 (stereo not given),0,0.81
Cc1cccc(C(=O)Nc2cccc(-c3ccc4nncn4n3)c2)c1,0.65,0.05
CCOC(=O)Cc1c(C)nc2c(-c3ccccc3)c(C)[nH]n2c1=O,0.11,0.98

Of the compounds above, 2 contain bromine:
smiles,KCNQ2 enhance baseline,KCNQ2 enhance
O=C(c1ccccc1)c1cncc(Br)c1,-0.3,0.92
CC1(C)CN(c2cccc(Br)c2)C1=O,1.45,0.75

Further compounds follow:
smiles,KCNQ2 enhance baseline,KCNQ2 enhance
O=C(CN1CCC(C(=O)c2ccc(F)cc2)CC1)Nc1ccccc1Cl,0.03,0.68
Cc1cc(C(=O)NC2CCCc3c2cnn3-c2cccc(C)c2C)no1 (stereo not given),-0.97,0.04
CSCC(=O)N1CCCC(C(=O)c2cc(F)ccc2F)C1 (stereo not given),-0.46,0.01
Cc1ccc(S(=O)(=O)N2CCCC2)cc1C(=O)NCc1ccccn1,0.14,1.94
O=C(CSc1nc2ncccc2[nH]1)NC1CCCC1,0,0.63
S=C(NCc1cccs1)Nc1ccc(Cl)cc1,-0.02,2.01
CNC(=O)N(O)C1N(/N=C/c2ccccc2O)C(=S)SC1(C)C (stereo not given),0.92,0.34
Cc1nc(SCC(=O)N2CCC(Cc3ccccc3)CC2)[nH]c(=O)c1C,0.52,1.9
CCOC(=O)C(C)NC(=O)C(NC(=O)C1CCC(CC)CC1)C(C)C (stereo not given),0.23,0.14
CCOC(=O)c1cccc(NC(=O)CCc2c(C)nc3ncnn3c2C)c1,0.43,0.83
CC#CC#Cc1cccc(=O)o1,0.21,0.08
CCn1c(SC(C)C(=O)Nc2ccc(N3CCOCC3)cc2)nnc1-c1ccco1 (stereo not given),-0.68,0.15
Cc1nc2c(nnn2Cc2ccccc2)c(=O)n1-c1ccccc1,-3.78,0.32
COc1ccc(-c2ccc(/C=C3/C(=N)N4C(C)=CSC4=NC3=O)o2)c([N+](=O)[O-])c1,-0.22,1.38
CC1Nc2ccccc2C(=O)N1NS(=O)(=O)c1ccccc1 (stereo not given),1.84,0.29
O=C(CCCCC(=O)Nc1ccc(F)cc1F)Nc1ccc(F)cc1F,-0.42,0.94
COc1ccccc1C(=O)NC(=O)COC(=O)CCS(=O)(=O)c1ccc(C)cc1,0.45,0.33
Clc1ccc(Cn2cccn2)cn1,-1.06,0.61
Clc1ccc(N/N=C/c2ccncc2)cc1Cl,-0.25,1.74
Fc1ccc(/C=N/NC(=S)Nc2cccnc2)cc1F,-0.41,0.06
Cc1ccc2cc(C#N)c(N3CCCN(C(=O)c4cnccn4)CC3)nc2c1,1.54,0.9
N#CCCn1c(O)c(N=NC(=O)CNC(=O)c2cccs2)c2ccccc21,0.05,1.11
Cc1nc(C(=O)N(C)C)nn1-c1ccc([N+](=O)[O-])cc1,-1.32,0.67
CCn1c(=O)c(=O)[nH]c2c(=O)oc3ccc(S(=O)(=O)Nc4ccc(OC)cc4)cc3c21,-2.91,0.33
CCC1CCCCN1CC(O)COCc1cccc(OC)c1 (stereo not given),-1.07,1.61
CC(C)(C)C(O)CN1CCCC1 (stereo not given),-0.19,0.09
COc1ccc(Cn2c(=S)[nH]c3ccccc3c2=O)cc1,0.97,0.27
O=C(c1ccco1)N1CCN(C(=O)c2cc(-c3ccccc3F)no2)CC1,-1.03,0.11
COc1ccc(CCC(=O)OCC(=O)Nc2ccc(OC)c(OC)c2)cc1OC,1.36,0.95
Cc1ccc(SCc2cc(=O)[nH]c(N3CCN(C)CC3)n2)cc1,0.01,1.68
CC1CN(S(=O)(=O)c2ccc(-c3nc4ccccc4s3)cc2)CC(C)O1 (stereo not given),-1.66,0.25
CCCC(=O)Nc1nc2c(c(=O)[nH]1)CCCC2,-0.79,0.01
CCC(=O)Nc1cc(-c2nn(CC(=O)N3CCCCC3)c(=O)c3ccccc23)ccc1N1CCOCC1,-1.46,0.32
NC(=S)N=Nc1c(O)[nH]c2ccccc12,-1.99,0.02
Clc1cccc(Cl)c1Cn1cnc2c(NCc3ccco3)ncnc21,-0.22,0.45
CN=C(NC#N)NCCSCc1nc[nH]c1C,0.12,1.08
O=C(c1ccco1)N1CCN(Cc2nc3cc(Cl)ccc3c(=O)[nH]2)CC1,0.05,0.14
COCCn1c(-c2ccccc2)nc(=S)c2c1CC(C)(C)OC2,0.55,0.63
CCOc1ccc(OCC(=O)c2c(O)c3ccccc3oc2=O)cc1,-0.47,1.04
Cc1ccc(/C=C2\SC(=S)N(CCC(=O)NNS(=O)(=O)c3ccc(C)cc3)C2=O)cc1,0.12,0.31
CC(C)N1C(=O)CCC1C(=O)N1CCCc2ccccc21 (stereo not given),-0.03,0.01
N=c1ncn(Cc2ccccc2)c2nc(SCCOc3ccccc3)[nH]c12,0.04,0.22
O=C(CN1CCN(c2ccccn2)CC1)Nc1cc(F)ccc1F,-1.99,0.2
Cc1cccn2cc(CNC(=O)C3CCCCC3)nc12,-0.25,1.72
C[n+]1cc(-c2ccccc2)n2c1CCCCC2,0.96,0.57
CC(Oc1ccc2oc(-c3ccccc3)c(C(=O)O)c2c1)C(=O)O (stereo not given),0.36,0.26
COc1ccc(CC(=O)NNC(=O)c2ccco2)cc1,1.13,1.17
CC(=O)Nc1ccc(SC[C@H](Cc2ccccc2)N2CCN(CC(C)C)CCC2=O)cc1,1.87,0.37
O=C(COC(=O)c1ccccn1)c1ccc(Br)cc1,1.12,0.06
CC(=O)c1cccc(NC(=O)c2ccc(S(=O)(=O)N3CCCCC3)cc2)c1,3.22,0.23
CC(C)(C)c1cn(-c2ccccc2)c(=S)[nH]1,1.36,0.24
Cc1ccc(CNC(=O)c2ccc3c(=O)n4c(-c5ccc(C)cc5)csc4nc3c2)cc1,-0.51,0.09
CCC1CCCCN1CCCNC(=O)CN1C(=O)c2cccnc2Oc2ccc(Cl)cc21 (stereo not given),-1.73,0.35
Cc1ccc(S(=O)(=O)CC(=O)c2ccc([N+](=O)[O-])cc2)cc1,0.04,0.85
CCC(C(=O)NCc1ccco1)N(C(=O)CNS(=O)(=O)c1ccccc1)C1CCCCC1 (stereo not given),0.72,0.27
Cc1ccccc1-c1nn2c(-c3ccccc3)nnc2s1,0.34,0.6
CCCNC(=O)c1ccccc1NC(=O)c1ccccc1N(C)S(C)(=O)=O,0.02,1.54
CCNC(=O)OCc1cn(-c2ccccc2)nn1,0.32,1.64
Cc1ccc(S(=O)(=O)N2CCC(C(=O)N[C@@H](Cc3ccccc3)C(=O)O)CC2)cc1,0.71,0.53
Cc1ccc(/C=C2\SC(=S)N(CCC(=O)NNC(=O)c3cccnc3)C2=O)cc1,1.18,0.68

(more compounds)
smiles,KCNQ2 enhance baseline,KCNQ2 enhance
CCOC(=O)c1c(NC(=O)CN2C(=O)NC(C)(c3ccccc3)C2=O)sc(C)c1C (stereo not given),-0.52,0.12
O=C(c1c[nH]c(C(=O)C(Cl)(Cl)Cl)c1)c1ccc(F)cc1Cl,-0.41*,6.62*
Cc1ccc(-c2n[nH]c(=O)c3ccccc23)cc1S(=O)(=O)N(C)C,0.83,0.71
CC(C)CCc1noc(CN2CCC(C(=O)N3CCOCC3)CC2)n1,0.19,0.95
O=C(Nc1ccc(C(=O)O)cc1)/C(=C\c1ccc2c(c1)OCO2)NC(=O)c1ccc(Br)cc1,0.23,1.12
COc1ccc(NC(=O)C(C)N2C(=O)C3CC=C(Cl)CC3C2=O)cc1 (stereo not given),-0.22,1.33
Cc1ccc(S(=O)(=O)c2nc(C)oc2NCc2ccccc2)cc1,0.83,0.28
COc1ccc(/C=C2/N=C3CCCCCN3C2=O)cc1OC,0.17,1.07
O=C(COc1ccccc1Br)NCc1ccco1,-1.74,0.03
O=C(Nc1cnccn1)c1csc2ccccc12,-0.75,0.94
CN(Cc1cnn(C)c1)Cc1nc(COc2ccccc2)no1,2.03,0.46
O=C(OCC(=O)c1ccc[nH]1)c1ccc(S(=O)(=O)N2CCCCC2)cc1,-0.84,0.38
Cc1nnc(SCC(=O)c2cc(C)n(C3CC3)c2C)s1,2.82,0.98
Cc1cc(=O)oc2c3c(cc(OCC(=O)NCc4cccnc4)c12)OC(C)(C)CC3,0.18,0.2
COc1ccc(NC(=O)CN(C)C2CCCCC2)c([N+](=O)[O-])c1,-0.76,1.24
CCOC(=O)C1CCN(C(=O)CSc2nnc(-c3ccco3)n2-c2ccccc2)CC1,0.33,1.44
Cc1nc([N+](=O)[O-])cn1CC(=O)c1ccc(F)cc1,1.24,0.29
CCCCn1c(N)c(N(CC(C)C)C(=O)C2CCN(S(=O)(=O)c3ccccc3)CC2)c(=O)[nH]c1=O,-0.04,0.02
COc1cc(OC)cc(C(=O)NCc2ccc3[nH]c(C)cc3c2)c1,2.84,0.79
CC(/C=C\c1cccnc1)=C/C(=O)O,.,1.08
CC[C@@H](C)[C@H](NC(=O)CNC(=O)Cc1c(C)c2c(cc(C)c3c(C)coc32)oc1=O)C(=O)O,1.38,0.74
Cc1ccc(S(=O)(=O)CCC(=O)N2CCN(c3ccccc3F)CC2)cc1,1.57,1.04
O=C(c1cc(-c2ccccc2Cl)nc2ccc(Br)cc12)N1CCN(c2ccccn2)CC1,-3.11,0.51
COc1cccc(C(=O)c2c(C)c(CCC#N)n3ccccc23)c1,-1.02,1.77
Cc1cc(NC(=O)CSc2nc3c(c(=O)n2Cc2ccccc2)SC(C)C3)no1 (stereo not given),-2.02,1.31
CC(NC(=O)/C(C#N)=C1\N=C(NC(=O)c2cccs2)c2ccccc21)c1ccccc1 (stereo not given),-0.05,1.4
O=C(NCCc1c[nH]c2ccccc12)c1ccc([N+](=O)[O-])cc1,-0.95,0.23

Part of the list above, with two lines to a compound.
Order of values: KCNQ2 enhance baseline	KCNQ2 enhance
- Cc1ccc(SCc2cc(=O)[nH]c(N3CCN(C)CC3)n2)cc1
  0.01	1.68
- CCCNC(=O)c1ccccc1NC(=O)c1ccccc1N(C)S(C)(=O)=O
  0.02	1.54
- Cc1cccc(C(=O)Nc2cccc(-c3ccc4nncn4n3)c2)c1
  0.65	0.05
